Screening data deposited in PubChem by Broad Institute.
DUX4 inh: blocks DUX4-driven transcriptional activation; 293T-iDUX4 ZSCAN4-Gaussia luciferase reporter, 24 h; stronger effect = lower value; activity change, negative = inhibition, % (concentration not given with the values); 37,000 compounds, 0.8% hits; AID 1224904;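 active = -10% or lower and over 25 points stronger than a control reporter; inconclusive = -10% or lower with a smaller gap; inactive = above -10%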;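 also: 0% = median of neutral control wells and -100% = median of positive control wells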
DUX4 inh difference: second read-out of DUX4 inh, no call of its own (marks repeat the call); Gaussia minus Italica difference, %; measured here: selective DUX4 reporter inhibition;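 worked out from the two reporters; negative = selective loss of the DUX4 reporter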
DUX4 inh control: further read-out of DUX4 inh, marked with its call; activity change, negative = inhibition, %; measured here: Italica tet-on control reporter;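 0 = neutral control and -100 = positive control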
An asterisk follows results filed as active; ? = inconclusive; . = no result given; & = joins results of further samples. Not all compounds are listed; count on the stated rates, not on these rows.

SMILES	DUX4 inh	DUX4 inh difference	DUX4 inh control
Cc1cccc(CN(C)C[C@@H]2OCc3cn(nn3)CCCC(=O)N([C@H](C)CO)C[C@H]2C)c1	2	3	-0.8
C[C@H]1CCCCO[C@@H](CN(C)CC2CCCCC2)[C@@H](C)CN([C@@H](C)CO)C(=O)c2cc(NC(=O)CCC(F)(F)F)ccc2O1	-2	-5	2.7
COCCNC[C@@H]1[C@H](c2ccccc2)[C@H](CO)N1c1nc(C)c(C)s1	2	1	0.3
COC(=O)[C@H]1[C@H](CO)[C@H]2Cn3c(ccc(-c4ccccc4F)c3=O)[C@H]2N1C(=O)c1ccccn1	-4	0	-4.5
O=C(c1cnccn1)N1C[C@H]2[C@@H](c3ccccc31)[C@@H](CO)N2Cc1ccccc1Cl	-2	-3	1.1
COc1ccc(NC(=O)N(C)C[C@@H]2Oc3ccc(NC(=O)CCN4CCOCC4)cc3C(=O)N([C@@H](C)CO)C[C@@H]2C)cc1	0	2	-2.0
C[C@H](CO)N1C[C@H](C)[C@H](CN(C)Cc2cccc(C(F)(F)F)c2)OCc2ccccc2-c2c(n(C)c3ccccc23)C1=O	?	.	.
CCC(=O)N1CC2(C1)[C@H](c1ccccc1)[C@H](CO)N2CCC(F)(F)F	1	-4	4.8
COCC(=O)N1[C@@H](C#N)[C@H](c2ccc(C#CCC3CCCC3)cc2)[C@@H]1CO	-1	-3	2.7
COc1ccc(-c2ccc([C@@H]3[C@@H](C#N)N(C(=O)CN(C)C)[C@@H]3CO)cc2)cc1	0	-4	3.4
COc1ccccc1C(=O)Nc1ccc2c(c1)OC[C@H](C)NC[C@H](C)[C@H](OC)CN(C)C2=O	8	4	4.1
COc1ccc2c3c(n(C)c2c1)[C@@H](CO)N(Cc1ccccc1F)CC31CN(CC2CC2)C1	?	.	.
CS(=O)(=O)Nc1ccc2c(c1)[C@@H]1C[C@@H](CC(=O)O)O[C@@H](CO)[C@@H]1O2	2	-2	3.5
Cc1cccc(S(=O)(=O)N2CC[C@@H]3[C@H](CO)Nc4ccc(C#Cc5ccccc5F)cc4[C@@H]32)c1	-9	4	-13
COc1ccc(S(=O)(=O)N(C)C[C@@H]2Oc3c(NC(=O)Nc4c(C)noc4C)cccc3C(=O)N([C@@H](C)CO)C[C@H]2C)cc1	-6	-4	-1.6
CO[C@@H](CN(C)C(=O)C1CCOCC1)[C@@H](C)CN(C(=O)Nc1ccc(F)cc1)[C@H](C)CO	-3	1	-4.1
COc1ccccc1CNC(=O)C[C@@H]1C[C@@H]2c3cc(NC(=O)C4CCC4)ccc3O[C@@H]2[C@@H](CO)O1	-1	1	-1.8
CCCNC(=O)c1cc2c(c(-c3cccc(-c4ccncc4)c3)n1)[C@@H](CCO)N(S(=O)(=O)CC)C2	-1	2	-2.7
Cc1ccc(-c2ccccc2[C@@H]2[C@@H](C#N)N(C(=O)Cc3cccnc3)[C@@H]2CO)cc1	?	.	.
CC(C)(C)[S@@](=O)N1Cc2cc(C(=O)N[C@H]3CCN(Cc4ccccc4)C3)nc(-c3cccc(-c4cccnc4)c3)c2[C@H]1CCO	3	3	-0.3

Among those listed so far, these have sulfur:
SMILES	DUX4 inh	DUX4 inh difference	DUX4 inh control
COCCNC[C@@H]1[C@H](c2ccccc2)[C@H](CO)N1c1nc(C)c(C)s1	2	1	0.3
CS(=O)(=O)Nc1ccc2c(c1)[C@@H]1C[C@@H](CC(=O)O)O[C@@H](CO)[C@@H]1O2	2	-2	3.5
Cc1cccc(S(=O)(=O)N2CC[C@@H]3[C@H](CO)Nc4ccc(C#Cc5ccccc5F)cc4[C@@H]32)c1	-9	4	-13
COc1ccc(S(=O)(=O)N(C)C[C@@H]2Oc3c(NC(=O)Nc4c(C)noc4C)cccc3C(=O)N([C@@H](C)CO)C[C@H]2C)cc1	-6	-4	-1.6
CCCNC(=O)c1cc2c(c(-c3cccc(-c4ccncc4)c3)n1)[C@@H](CCO)N(S(=O)(=O)CC)C2	-1	2	-2.7
CC(C)(C)[S@@](=O)N1Cc2cc(C(=O)N[C@H]3CCN(Cc4ccccc4)C3)nc(-c3cccc(-c4cccnc4)c3)c2[C@H]1CCO	3	3	-0.3

(listing goes on)
SMILES	DUX4 inh	DUX4 inh difference	DUX4 inh control
COc1ccccc1CNC(=O)C[C@H]1CC[C@H]2[C@@H](COC[C@@H](O)CN2Cc2ccc3c(c2)OCO3)O1	-3	1	-4.4
CCC(=O)N1CCCCN2[C@H](CO)[C@@H](c3ccc(-c4cccnc4)cc3)[C@@H]2C1	2	-12	14
COc1ccc(S(=O)(=O)N(C)C[C@@H]2OCc3cnnn3CCCC(=O)N([C@H](C)CO)C[C@H]2C)cc1	8	2	6.1
O=C(NC[C@H]1[C@H](c2ccccc2)[C@@H](CO)N1CC1CC1)c1cccnc1	0	0	-0.1
O=C(C1CCOCC1)N1C[C@H]2[C@@H](c3ccccc31)[C@H](CO)N2C(=O)c1ccccc1	4	1	3.0
C[C@@H]1CN([C@@H](C)CO)S(=O)(=O)c2ccc(C#CC3(O)CCCC3)cc2O[C@H]1CN(C)C(=O)Nc1cccc(F)c1	0	-2	1.8
C/C=C/c1ccc([C@H]2[C@@H](CO)N[C@@H]2CNC(=O)c2ccccc2F)cc1	-3	-3	0.8
Cc1noc(C)c1NC(=O)Nc1ccc2c(c1)CC(=O)N([C@@H](C)CO)C[C@H](C)[C@H](CN(C)C(=O)NC1CCCCC1)O2	-2	-3	0.5
C[C@H]1CN([C@@H](C)CO)S(=O)(=O)c2ccc(-c3cncnc3)cc2O[C@H]1CN(C)Cc1ccc(Oc2ccccc2)cc1	0	-2	2.2
Cc1noc(C)c1NC(=O)Nc1cccc2c1O[C@H](CN(C)C(=O)NC1CCCCC1)[C@H](C)CN([C@H](C)CO)C2=O	8	10	-2.1
CCN(C[C@H]1[C@H](c2ccccc2)[C@H](CO)N1C(C)=O)C(=O)c1ccccn1	2	1	0.4
CC(=O)N1CC2(C1)[C@H](c1ccc(-c3cccc(F)c3)cc1)[C@H](CO)N2CC1CCCC1	?	.	.
COC(=O)C[C@@H]1CC[C@@H]2[C@H](COC[C@H](O)CN2C(=O)Nc2cccc(F)c2)O1	8	1	7.4
O=C(C[C@H]1CC[C@H]2[C@@H](COC[C@@H](O)CN2CCC(F)(F)F)O1)NCc1ccc2c(c1)OCO2	6	-4	9.9
CCCC#Cc1ccc([C@@H]2[C@H]3CN(C(=O)c4cccnc4)CC(=O)N3[C@H]2CO)cc1	14	4	10
CN(C)C(=O)c1cccc(-c2ccc3c(c2)[C@@H]2[C@@H](CCN2S(=O)(=O)c2ccccc2)[C@H](CO)N3)c1	?	.	.
CN(C[C@@H]1[C@H](c2ccccc2)[C@@H](CO)N1C(=O)C1CC1)C(=O)c1ccccn1	0	-1	1.6
Cc1cc(C(=O)Nc2ccc3c(c2)C(=O)N(C)[C@@H]2CC[C@@H](CC(=O)N[C@@H](C)c4ccccc4)O[C@@H]2CO3)no1	3	5	-1.6
COCC(=O)N1C[C@H]2[C@@H](c3ccccc31)[C@H](CO)N2Cc1ccccc1	2	0	2.2
O=C(C[C@@H]1CC[C@H]2[C@@H](COC[C@@H](O)CN2C(=O)c2ccccn2)O1)NC1CCC1	8	2	6.4
CCC(=O)N1[C@H](CO)[C@H]2c3ccccc3N(C(=O)c3ccccc3F)C[C@H]21	1	1	0.2
C[C@@H]1CN([C@@H](C)CO)C(=O)c2cccc(N(C)C)c2O[C@H]1CN(C)S(=O)(=O)c1cccs1	2	3	-1.4
C[C@H](CO)N1C[C@H](C)[C@H](CN(C)Cc2ccc(C(F)(F)F)cc2)OCc2ccccc2-c2ccccc2C1=O	?	.	.
CCCC(=O)Nc1ccc2c(c1)C(=O)N(C)[C@@H]1CC[C@H](CC(=O)OC)O[C@@H]1CO2	1	2	-0.6
O=C(c1ccncc1)N1C[C@@H]2[C@H](c3ccccc31)[C@H](CO)N2C(=O)c1ccccn1	-4	-1	-3.4
CCC(=O)N1CCCCN2[C@H](C1)[C@@H](c1ccc(-c3ccc(F)cc3)cc1)[C@@H]2CO	5	8	-2.9
O=C(C1CCCC1)N1CC2(C1)[C@@H](c1ccccc1)[C@H](CO)N2CCC(F)(F)F	2	-5	7.6
C[C@@H]1CN([C@@H](C)CO)C(=O)c2c(c3ccccc3n2C)-c2ccccc2CO[C@@H]1CN(C)Cc1ccc(Cl)c(Cl)c1	12	-1	13
CO[C@H]1CN(C)C(=O)c2cc(NS(=O)(=O)CC(F)(F)F)ccc2OC[C@H](C)N(Cc2cccnc2)C[C@@H]1C	2	-5	6.8
COc1ccc(NC(=O)N(C)C[C@@H]2Oc3c(NS(=O)(=O)c4c(C)noc4C)cccc3C(=O)N([C@H](C)CO)C[C@@H]2C)cc1	-3	-2	-0.7
N#C[C@@H]1[C@H](c2ccccc2)[C@@H](CO)N1C(=O)c1ccc2c(c1)OCO2	6	2	3.8
COc1ccc2c3c(n(C)c2c1)[C@H](CO)N(C)CC31CCN(C(=O)c2ccc3c(c2)OCO3)CC1	4	-5	8.9
CN1CCN(C(=O)C[C@@H]2C[C@H]3c4cc(NS(C)(=O)=O)ccc4O[C@H]3[C@@H](CO)O2)CC1	12	7	4.9
O=C(Nc1ccc(-c2ccccc2)cc1)[C@@H]1[C@@H](CO)[C@@H]2Cn3c(cccc3=O)[C@H]1N2Cc1cccnc1	5	0	4.9
O=C(C[C@@H]1CC[C@@H]2NC[C@H](O)COC[C@H]2O1)Nc1ccc(-c2ccccc2)cc1	0	3	-3.0
CC(C)C[C@H]1COCc2cn(nn2)CC[C@H](Cc2ccc(Cl)cc2)C(=O)N1	-2	-5	3.3
COc1ccc(S(=O)(=O)N2CC[C@@H]3[C@H]2c2cc(-c4ccc(C#N)cc4)ccc2N[C@@H]3CO)cc1	10	7	3.3
O=C(Nc1cccc(Cl)c1)N[C@@H]1CC[C@@H](CCn2cc(Cc3ccccc3)nn2)O[C@@H]1CO	-10	20	-29
CC(C)NC(=O)N1[C@@H]2CNC[C@H]1C2c1ccc(/C=C/c2ccccc2)cc1 (stereo not given in full)	10&11	12&16	-2.5&-4.9
O=C(C[C@@H]1CC[C@@H]2[C@H](COC[C@@H](O)CN2Cc2ccc(Oc3ccccc3)cc2)O1)N1CCc2ccccc2C1	?	.	.
COc1ccc(C#Cc2ccc([C@H]3[C@H](CO)N4C(=O)CN(C(=O)c5ccc(F)cc5)C[C@@H]34)cc2)cc1	-3	2	-5.0
O=C(c1cccnc1)N1CC(=O)N2[C@H](C1)[C@@H](c1ccc(-c3ccccc3F)cc1)[C@@H]2CO	0	4	-3.4
O=C(c1cccnc1)N1CC(=O)N2[C@H](C1)[C@@H](c1ccc(/C=C/c3ccccc3)cc1)[C@@H]2CO	?	.	.
COc1ccc(-c2ccc([C@H]3[C@H]4CN(C(=O)C5CC5)CC(=O)N4[C@H]3CO)cc2)cc1	13	9	4.1
C[C@H](CO)N1C[C@H](C)[C@H](CN(C)C(=O)NC2CCCCC2)OCc2ccccc2-c2ccccc2C1=O	2	7	-5.1
N#C[C@@H]1N[C@H](CO)[C@H]1c1ccc(-c2ccccc2F)cc1	0	2	-1.8
C[C@H](CO)N1C[C@H](C)[C@H](CN(C)Cc2cccnc2)OCc2cn(nn2)CCCC1=O	2	-5	7.5
O=C(Nc1ccccc1)N1CCCCN2[C@H](C1)[C@H](c1ccc(Br)cc1)[C@@H]2CO	2	9	-6.8
O=S(=O)(c1ccc(F)cc1)N1C[C@@H]2[C@H](c3ccccc31)[C@H](CO)N2Cc1ccccc1Cl	3	3	-0.1
N#C[C@H]1[C@H](c2ccccc2-c2ccc(F)cc2)[C@H](CO)N1C(=O)Cc1ccccc1	-8	-7	-1.2
C[C@@H]1CN([C@@H](C)CO)C(=O)CCCn2cc(nn2)CO[C@@H]1CN(C)C(=O)Nc1cccc(C(F)(F)F)c1	7	9	-2.3
COc1cccc(CN2CC3(CCN(S(C)(=O)=O)CC3)c3c(n(C)c4cc(OC)ccc34)[C@@H]2CO)c1	10	-1	11
N#C[C@H]1[C@H](c2ccc(-c3cccc(F)c3)cc2)[C@@H](CO)N1C(=O)CN1CCOCC1	1	-4	4.3
C[C@@H]1CN([C@@H](C)CO)C(=O)c2cccc(NC(=O)NC3CCCCC3)c2O[C@H]1CN(C)Cc1ccc(C(F)(F)F)cc1	1	2	-0.8
CN1CCN(C(=O)[C@H]2[C@H](CO)[C@H]3Cn4c(cccc4=O)[C@@H]2N3S(=O)(=O)c2ccccc2F)CC1	1	1	0.3
CNC(=O)C[C@H]1CC[C@H]2[C@@H](COc3ccc(NC(=O)Nc4ccccc4F)cc3C(=O)N2C)O1	1	-3	4.0
O=S(=O)(c1ccccc1F)N1CC[C@@H]2[C@H](CO)Nc3ccc(-c4cccc(F)c4)cc3[C@@H]21	?	.	.

Three entries already listed, ordered by SMILES length, descending.
SMILES	DUX4 inh	DUX4 inh difference	DUX4 inh control
C[C@@H]1CN([C@@H](C)CO)C(=O)CCCn2cc(nn2)CO[C@@H]1CN(C)C(=O)Nc1cccc(C(F)(F)F)c1	7	9	-2.3
CNC(=O)C[C@H]1CC[C@H]2[C@@H](COc3ccc(NC(=O)Nc4ccccc4F)cc3C(=O)N2C)O1	1	-3	4.0
N#C[C@H]1[C@H](c2ccccc2-c2ccc(F)cc2)[C@H](CO)N1C(=O)Cc1ccccc1	-8	-7	-1.2

Whole records from above.
O=C(C[C@@H]1CC[C@@H]2[C@H](COC[C@@H](O)CN2Cc2ccc(Oc3ccccc3)cc2)O1)N1CCc2ccccc2C1 is entered as DUX4 inh = ?; DUX4 inh difference = .; DUX4 inh control = .
COc1ccc2c3c(n(C)c2c1)[C@H](CO)N(C)CC31CCN(C(=O)c2ccc3c(c2)OCO3)CC1 is entered as DUX4 inh = 4; DUX4 inh difference = -5; DUX4 inh control = 8.9
